Screens deposited in PubChem by National Center for Advancing Translational Sciences (NCATS).
nsP2pro primary = inhibitors of chikungunya virus nsP2 protease; FRET peptide cleavage, nsP2pro, fluorescence 1 h; 31,000 compounds, 1.1% hits; Potency, µM (highest dose often 24.9 µM), for inactives: top-dose activity change, negative = inhibition, hits mostly inhibitors; Q8JUX6; active means well fitted inhibition curve with a large enough effect; inconclusive means small, poorly fitted or top-dose-only effect; inactive means no such curve, though single readings can be large or run the other way; further: nearly all actives have a fitted effect of over 60% in size; a reference inhibitor and vehicle were the controls
Target sequence (Q8JUX6 whole entry, looked up): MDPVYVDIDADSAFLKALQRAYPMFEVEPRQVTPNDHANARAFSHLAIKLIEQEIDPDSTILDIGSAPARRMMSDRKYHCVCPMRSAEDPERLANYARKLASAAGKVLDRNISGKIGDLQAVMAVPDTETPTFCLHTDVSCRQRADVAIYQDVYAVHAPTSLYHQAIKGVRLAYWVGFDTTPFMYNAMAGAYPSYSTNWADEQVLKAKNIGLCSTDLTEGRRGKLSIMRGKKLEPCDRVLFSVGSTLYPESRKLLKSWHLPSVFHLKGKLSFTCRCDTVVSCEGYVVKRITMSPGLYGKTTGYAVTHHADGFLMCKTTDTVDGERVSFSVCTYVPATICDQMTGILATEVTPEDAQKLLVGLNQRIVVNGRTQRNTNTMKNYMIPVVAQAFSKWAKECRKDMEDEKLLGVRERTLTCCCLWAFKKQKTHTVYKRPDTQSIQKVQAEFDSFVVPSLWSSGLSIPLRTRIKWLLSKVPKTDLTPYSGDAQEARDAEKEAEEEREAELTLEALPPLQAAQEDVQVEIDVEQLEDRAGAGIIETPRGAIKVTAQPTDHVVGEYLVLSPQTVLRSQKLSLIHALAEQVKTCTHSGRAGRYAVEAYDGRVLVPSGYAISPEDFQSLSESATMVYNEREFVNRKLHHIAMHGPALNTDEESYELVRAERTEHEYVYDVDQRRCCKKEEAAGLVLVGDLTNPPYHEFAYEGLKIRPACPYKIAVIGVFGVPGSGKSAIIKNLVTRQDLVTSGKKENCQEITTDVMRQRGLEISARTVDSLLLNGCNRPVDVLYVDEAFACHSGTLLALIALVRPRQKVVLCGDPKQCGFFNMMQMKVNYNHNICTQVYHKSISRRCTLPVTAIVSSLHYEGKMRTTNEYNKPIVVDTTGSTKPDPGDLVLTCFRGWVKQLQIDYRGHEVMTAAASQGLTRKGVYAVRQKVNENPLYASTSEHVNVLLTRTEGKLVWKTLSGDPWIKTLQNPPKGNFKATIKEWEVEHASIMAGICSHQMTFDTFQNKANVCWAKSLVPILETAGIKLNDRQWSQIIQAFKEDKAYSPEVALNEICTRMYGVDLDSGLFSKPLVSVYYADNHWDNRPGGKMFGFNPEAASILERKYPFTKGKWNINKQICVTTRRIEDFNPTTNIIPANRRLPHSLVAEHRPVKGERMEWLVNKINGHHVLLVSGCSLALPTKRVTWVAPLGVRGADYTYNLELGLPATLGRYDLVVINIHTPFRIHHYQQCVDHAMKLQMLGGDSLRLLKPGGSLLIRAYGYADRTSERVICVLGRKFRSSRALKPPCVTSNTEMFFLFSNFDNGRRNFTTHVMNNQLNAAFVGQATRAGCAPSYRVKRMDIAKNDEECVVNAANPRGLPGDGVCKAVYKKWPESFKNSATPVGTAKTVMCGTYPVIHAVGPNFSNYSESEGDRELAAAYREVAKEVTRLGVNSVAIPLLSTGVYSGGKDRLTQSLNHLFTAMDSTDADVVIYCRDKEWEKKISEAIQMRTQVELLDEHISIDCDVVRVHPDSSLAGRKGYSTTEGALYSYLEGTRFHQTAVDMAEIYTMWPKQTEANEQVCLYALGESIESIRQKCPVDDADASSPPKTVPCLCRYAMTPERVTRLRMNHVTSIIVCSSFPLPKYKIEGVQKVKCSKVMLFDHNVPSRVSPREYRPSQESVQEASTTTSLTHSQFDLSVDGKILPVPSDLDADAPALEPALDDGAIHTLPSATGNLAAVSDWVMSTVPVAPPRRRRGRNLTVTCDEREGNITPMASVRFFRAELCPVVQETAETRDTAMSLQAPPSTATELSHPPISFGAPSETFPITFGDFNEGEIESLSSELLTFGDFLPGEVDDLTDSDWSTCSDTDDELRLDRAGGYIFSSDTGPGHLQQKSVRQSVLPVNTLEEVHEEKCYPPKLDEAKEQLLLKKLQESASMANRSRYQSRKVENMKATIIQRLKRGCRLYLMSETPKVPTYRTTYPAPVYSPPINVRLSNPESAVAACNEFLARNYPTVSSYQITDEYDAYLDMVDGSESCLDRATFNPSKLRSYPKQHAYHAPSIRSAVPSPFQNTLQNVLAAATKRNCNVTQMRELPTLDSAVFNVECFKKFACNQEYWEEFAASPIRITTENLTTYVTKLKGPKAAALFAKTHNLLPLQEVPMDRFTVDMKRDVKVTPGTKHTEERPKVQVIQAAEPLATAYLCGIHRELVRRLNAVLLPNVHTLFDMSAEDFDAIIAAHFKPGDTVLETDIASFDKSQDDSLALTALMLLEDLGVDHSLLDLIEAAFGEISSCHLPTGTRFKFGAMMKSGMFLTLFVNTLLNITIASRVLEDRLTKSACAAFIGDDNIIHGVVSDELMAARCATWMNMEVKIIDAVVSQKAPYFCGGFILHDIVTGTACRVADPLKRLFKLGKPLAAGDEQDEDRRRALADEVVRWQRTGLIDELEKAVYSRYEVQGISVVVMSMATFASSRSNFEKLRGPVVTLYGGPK
Starred values were filed as active, the others as inactive; i = inactive; ? = inconclusive; & = joins results of further samples; [ ] = remark or other dose. On the % scale 0 is the no-effect control and ±100 the full control effect; potency means the concentration at half of the fitted maximal effect. Only part of the results is shown. The share of hits here may be higher or lower than overall.

The opening 3 records, to show the layout:
SMILES	nsP2pro primary
COc1ccc(C2CC(=O)c3c(O)cc(OC4OC(CO)C(O)C(O)C4OC4OC(C)C(O)C(O)C4O)cc3O2)cc1O (stereo unspecified)	-21%
COc1ccc(CN2CCc3nc(N4CCN(C)CC4)[nH]c(=O)c3CC2)c(OC)c1OC	i
Clc1ccc(C(c2ccccc2Cl)C(Cl)Cl)cc1 (stereo unspecified)	0%

Results (from the top)
SMILES	nsP2pro primary
COc1ccc(C2CC(=O)c3c(O)cc(OC4OC(CO)C(O)C(O)C4OC4OC(C)C(O)C(O)C4O)cc3O2)cc1O (stereo unspecified)	-21%
COc1ccc(CN2CCc3nc(N4CCN(C)CC4)[nH]c(=O)c3CC2)c(OC)c1OC	i
Clc1ccc(C(c2ccccc2Cl)C(Cl)Cl)cc1 (stereo unspecified)	0%
CCOc1ccc(CCNC(=O)c2ccc(CSCc3ccccc3C)o2)cc1OCC	-12%
CCCC(=O)N1CCC(N2C(=O)N(Cc3cccnc3)CC23CCOC3)CC1 (stereo unspecified)	1%
CS(=O)(=O)c1ccc(N2CCN(CC3(O)CNCCOC3)CC2)c(F)c1 (stereo unspecified)	3%
CCNC(=O)c1ccc2c(c1)OCCN(c1cccc(OC(F)(F)F)c1)C2	4%[39.2 µM]
CCOC(=O)c1c(S(=O)(=O)NCC(=O)NCc2ccccc2)c(C)n(C)c1C	-13%
CCCOc1cccc(C2c3c(oc4ccc(F)cc4c3=O)C(=O)N2Cc2ccc3c(c2)OCO3)c1 (stereo unspecified)	-14%
CN1CCN(C(=O)Cn2c(-c3cccs3)cc3cc(Cl)ccc32)CC1	0%
O=C(O)c1ccc(-c2nn3c(=O)cc(N4CCNCC4)nc3s2)cc1	1%
C[S+](=O)([O-])N1CC2(Cc3ccccc31)CN(C(=O)NC1CCCC1)C2	-13%
CC(C)N1Cc2ccc(Nc3nn4c(=O)c5ccccc5nc4s3)cc2C1	-19%
CCn1nc(C)c(CCN(C)C(=O)Nc2cccc(Cl)c2C)c1C	-10%
CC(C)c1ccccc1-c1nc2c(c(NCc3ccc(-c4cccnc4)cc3)n1)CCNC2	i
O=S1(=O)N=C(Oc2cccc3ccccc23)c2ccccc21	-16%
CCc1ccc(NC(=O)Cn2ccn(-c3ccc(OC)cc3)c(=O)c2=O)cc1	-28%
Cc1nc(CN2C[C@H](C(=O)N3CCN(c4ccccn4)CC3)C[C@@H]2c2ccc(F)cc2)cs1	1%
C[C@]12CC[C@H]3[C@@H](CCC4=C(O)C(=O)CC[C@@H]43)[C@@H]1CC[C@@H]2OC(=O)CCC1CCCC1	3%
NS(=O)(=O)c1ccc(-n2nc(C3CCOC3)nc2C2CCC2)cc1 (stereo unspecified)	i
N#Cc1ccc(S(=O)(=O)N2CCN(S(=O)(=O)c3ccc4c(c3)OCCO4)CC2)cc1	-2%
COc1ccc(CN2CCc3nc(C(=O)NCCOc4ccccc4)oc3CC2)cn1	3.5µM*
CCCN=C1S/C(=C\c2ccc(OC[C@H](O)CO)c(Cl)c2)C(=O)N1c1ccccc1C	-12%
C[N+]1(C)[C@@H]2CC(OC(=O)C(O)(c3cccs3)c3cccs3)C[C@H]1[C@H]1O[C@@H]12 (stereo partly specified)	-3%
COc1ccccc1CNC(=O)C1CN(C(C)C)C(=O)N1 (stereo unspecified)	i
CNc1oc(-c2cccc3c2OC(F)(F)O3)nc1C#N	-4%
Cc1c(C(=O)O)[nH]c2c1C(=O)CC(c1ccco1)C2 (stereo unspecified)	i
Cc1ccc(-n2ncc3c(NCCc4ccccc4)ncnc32)cc1Cl	-2%
COc1ccc(Cl)cc1Nc1ncnc2c1c(-c1ccccc1)cn2-c1ccccc1	-17%
COc1ccc(C2Nc3ccccc3C(=O)N2Cc2ccccc2)cc1COc1cccc(C(F)(F)F)c1 (stereo unspecified)	-10%

An excerpt taken from the entries so far:
SMILES	nsP2pro primary
O=S1(=O)N=C(Oc2cccc3ccccc23)c2ccccc21	-16%
CCc1ccc(NC(=O)Cn2ccn(-c3ccc(OC)cc3)c(=O)c2=O)cc1	-28%
Cc1nc(CN2C[C@H](C(=O)N3CCN(c4ccccn4)CC3)C[C@@H]2c2ccc(F)cc2)cs1	1%

(continued)
SMILES	nsP2pro primary
NCCCC(=O)Nc1ccc(Cl)cc1C(=O)c1ccc[nH]1	-28%
CNc1ccc(-c2nc(-c3ccco3)no2)cc1[N+](=O)[O-]	-9%
FC(F)(F)c1ccccc1-c1nc(NCC23CC4CC(CC(C4)C2)C3)c2ccccc2n1	-8%
Cc1ccc(Cn2ncc3c4sc(C)cc4n(C)c3c2=O)cc1	4%
Oc1ccc(CC2NCCc3cc(O)c(O)cc32)cc1 (stereo unspecified)	?
O=C(O)c1ccc(C(=O)O)cc1	-20%
CCCCC(C)(O)CC=C[C@H]1[C@H](O)CC(=O)[C@H]1CCCCCCC(=O)OC (stereo partly specified)	1%
O=S(=O)(NCCc1noc(-c2ccccc2)n1)c1ccc(Cl)cc1	-2%
Cc1ccc(C)c(CSc2nc3ncccc3[nH]2)c1	-2%
Cc1ccc(C(c2sc3nc(-c4ccco4)nn3c2O)N2CCCC2)cc1 (stereo unspecified)	?
O=C1NCCOCCN(C(=O)c2nccc3ccccc23)[C@H]2CCC[C@@H]12	1%
CCN(CC)S(=O)(=O)c1ccc2c(c1)N(CC(=O)NCc1ccccc1)C(=O)C1CCCCN21 (stereo unspecified)	?
Cc1nc2ccccc2c(-c2ccc3c4c(ccnc24)CCO3)c1[C@H](OC(C)(C)C)C(=O)O	-6%
COc1ccc(CCNCc2c(C(=O)O)c(C)n(Cc3cccc(Cl)c3)c2C)c(OC)c1OC	0%
Cc1ccc(CNC(=O)CCN2C(=O)C(C)Oc3ccc(C)cc32)cc1 (stereo unspecified)	-26%
CCNC(=O)c1c(NC(=O)Cc2coc3cc(C)cc(C)c23)sc2c1CCCC2	-17%
CC(=O)N1CCCc2cc(S(=O)(=O)N3CCC(C(=O)Nc4ccc(C)cc4Cl)CC3)ccc21	-9%
CCc1c(CC(N)=O)c2cc(OCCCP(=O)(O)O)ccc2n1Cc1ccccc1	-15%
N#Cc1nc(Nc2cc(F)cc(F)c2)nc(NC2CCCC2)n1	0%
Cc1cnn(CCC(=O)N2CCCn3ccnc3C2c2cnn(C)c2)c1 (stereo unspecified)	-19%
Cc1c(Cl)cccc1-c1ccc(CNCCCSc2nnnn2C)o1	-1%
CCCNC(=O)CN1C(=O)c2c(c3ccccc3n2C)C1c1ccc(OC)cc1 (stereo unspecified)	-18%
CCN(CC)C(=O)COC(=O)c1ccc(S(C)(=O)=O)c([N+](=O)[O-])c1	-4%
C[C@@H]1O[C@@H](O[C@H]2[C@H](OC(=O)[C@]34CCC(C)(C)C[C@H]3C3=CCC5[C@@]6(C)C[C@H](O)[C@H](O[C@@H]7O[C@H](CO)[C@@H](O)[C@H](O)[C@H]7O)[C@](CO)(C(=O)O)C6CC[C@@]5(C)[C@]3(C)C[C@H]4O)OC[C@H](O)[C@@H]2O)[C@H](O)[C@H](O)[C@H]1O[C@@H]1OC[C@@H](O)[C@H](O[C@@H]2OC[C@](O)(CO)[C@H]2O)[C@H]1O (stereo partly specified)	-6%[5.1 µM]
CCCCOC(=O)C(=O)Nc1cccc(-c2nn[nH]n2)c1	-1%
Cc1cc(NC(=O)Nc2ccc(F)c(F)c2)n(-c2ccccc2)n1	-13%
CC(Cc1ccncc1)Nc1nccc(-c2cnn(-c3ccccc3)c2)n1 (stereo unspecified)	i
O=C1CCCC2=C1C(c1[nH]ncc1Cl)NC(=NCc1cccs1)N2 (stereo unspecified)	1%
CC(=O)c1ccc(NS(=O)(=O)c2ccc3c(c2)NC(=O)CCS3)cc1	-11%
N#CC1CCN(c2nc(-c3ccc(Br)cc3)cs2)CC1	i

4 of the compounds above, comma-delimited.
mol,nsP2pro primary
Cc1c(Cl)cccc1-c1ccc(CNCCCSc2nnnn2C)o1,-1%
CCCNC(=O)CN1C(=O)c2c(c3ccccc3n2C)C1c1ccc(OC)cc1 (stereo unspecified),-18%
CCN(CC)C(=O)COC(=O)c1ccc(S(C)(=O)=O)c([N+](=O)[O-])c1,-4%
C[C@@H]1O[C@@H](O[C@H]2[C@H](OC(=O)[C@]34CCC(C)(C)C[C@H]3C3=CCC5[C@@]6(C)C[C@H](O)[C@H](O[C@@H]7O[C@H](CO)[C@@H](O)[C@H](O)[C@H]7O)[C@](CO)(C(=O)O)C6CC[C@@]5(C)[C@]3(C)C[C@H]4O)OC[C@H](O)[C@@H]2O)[C@H](O)[C@H](O)[C@H]1O[C@@H]1OC[C@@H](O)[C@H](O[C@@H]2OC[C@](O)(CO)[C@H]2O)[C@H]1O (stereo partly specified),-6%[5.1 µM]

Continuation:
SMILES	nsP2pro primary
CCN1CCN(C(=O)C23CCC=C2N(C2CCCC2)C(=O)CC3)CC1 (stereo unspecified)	i
COCCNc1nc(C)nc2c1nc(-c1ccccc1)n2CC1CCN(C)CC1	?
Cc1ccc(CNC(=O)CCCCCn2c(=O)c3sccc3n(CC(=O)N3CCCCC3C)c2=O)cc1 (stereo unspecified)	-21%
CCOc1ccccc1NC(=O)Cn1c(=O)n(-c2ccc(Cl)cc2)c(=O)c2oc3ccccc3c21	-5%
CC(OC(=O)NCC1(CC(=O)O)CCCCC1)OC(=O)C(C)C (stereo unspecified)	-15%
CCCCc1oc2ccc(NS(C)(=O)=O)cc2c1C(=O)c1ccc(OCCCN(CCCC)CCCC)cc1	85%&62%[activator]
CCCCCCCCCCCC[n+]1ccc2ccccc2c1	-13%
CCN(CC)CCCn1c(-c2ccccc2)nc2c(N(CCOC)CCOC)nc(C)nc21	-4%
CC(C)(O)C#Cc1ccc(-c2nccn2-c2cccc(-n3cncn3)c2)cc1	i
CC1=C2C(=O)C3[C@@H](CC=C4C[C@@H](O)CC[C@@]43C)[C@@H]2CC[C@]12O[C@@H]1C[C@H](C)CN[C@H]1[C@H]2C (stereo partly specified)	-6%[10 µM]
CC[C@H]1CN(C(=O)NC2CCCCC2)CC[C@H]1CC(=O)NCc1ccco1	?
CC1(c2noc(C3CC3)n2)CCN(C(=O)CCc2nc3ccc(Cl)cc3[nH]2)CC1	i
N=c1c2c(ncn1-c1ccccc1)Oc1ccc3ccccc3c1C2c1ccc2c(c1)CCO2 (stereo unspecified)	-15%
O=C(c1ccc(Cl)cc1)N1CCN(Cc2ccccc2-c2cccnc2)CC1	i
O=C(NCCc1ccc(Cl)cc1)C(=O)NCC(c1ccco1)S(=O)(=O)c1ccccc1 (stereo unspecified)	-19%
Cc1ccc(S(=O)(=O)Nc2cccc3cccnc23)c([N+](=O)[O-])c1	83%[activator]
CCN(CC)CCNC(=O)c1ccc(-c2nc(CS(=O)(=O)c3ccc(C)cc3)c(C)o2)cc1	6%
Cc1cc(CC(C)C[Si](C)(O[Si](C)(C)C)O[Si](C)(C)C)c(O)c(-n2nc3ccccc3n2)c1 (stereo unspecified)	2%[5.1 µM]
CCC(C)(O)C(O)C(=O)OCc1ccc(O[C@@H]2O[C@H](CO)[C@@H](O)[C@H](O)[C@H]2O)c(OC)c1 (stereo partly specified)	-2%[10 µM]
COc1cccc(N2CCN(C(=O)Cn3ncc4c3-c3ccccc3OC4)CC2)c1	-9%
COc1ccc(Cl)cc1NC(=O)c1oc2ccc(S(=O)(=O)N3CCCCC3)cc2c1C	-20%
COc1ccc(C(=O)Nc2nc(-c3ccccc3)cs2)c(OC)c1	-2%
CC(C)OC(=O)CCC/C=C\C[C@@H]1[C@@H](/C=C/[C@@H](O)COc2cccc(C(F)(F)F)c2)[C@H](O)C[C@@H]1O	-6%
Cc1ccc(-c2cc(C(=O)NC3CCCCC3)c3ccccc3n2)cc1C	i
COc1ccc(C2CC(=O)c3cnc4c(-c5ccccc5)c(C)nn4c3C2)c(OC)c1 (stereo unspecified)	-16%
CSc1ncc(C(=O)N2CCN(c3cccc(Cl)c3)CC2)c(C)n1	-22%
O=C(Nc1cccc(C(F)(F)F)c1)c1cc(-c2ccc(Cl)s2)nc2ccccc12	-18%
O=C([C@@H]1CNC[C@H](C(=O)N2CCC(c3ccncn3)CC2)C1)N1CCCC1	-5%
O=C(CCC1N=C2c3ccccc3N=C(SCC(=O)Nc3ccccc3F)N2C1=O)NCc1cccs1 (stereo unspecified)	-15%
CC(=O)SCC(=O)c1ccc(NS(=O)(=O)c2ccc(OCCCN(C)C)cc2)nc1	-9%

3 entries from above, sorted by heavy-atom count, rising:
SMILES	nsP2pro primary
COc1ccc(C(=O)Nc2nc(-c3ccccc3)cs2)c(OC)c1	-2%
CC(=O)SCC(=O)c1ccc(NS(=O)(=O)c2ccc(OCCCN(C)C)cc2)nc1	-9%
COc1ccc(Cl)cc1NC(=O)c1oc2ccc(S(=O)(=O)N3CCCCC3)cc2c1C	-20%

Next results:
SMILES	nsP2pro primary
COc1cc2ncnc(Nc3ccc(F)c(Cl)c3)c2cc1OCCCN1CCOCC1	147%&44%[activator]
O=C(CCn1cccn1)NC1CC(=O)N(Cc2cccc3ccccc23)C1 (stereo unspecified)	-1%
CC(NCc1ccc2c(c1)nc(NC(=O)c1ccc(-c3cn[nH]c3)s1)n2CC(C)(C)O)C(C)(C)C (stereo unspecified)	i
CC(C)c1ccc(C2Sc3ccccc3NC3=C2C(=O)c2ccccc23)cc1 (stereo unspecified)	-16%
COc1cccc(C2c3c(ncn(-c4cccc(Br)c4)c3=N)Oc3ccc4ccccc4c32)c1 (stereo unspecified)	-10%
CCOC(=O)c1c(NC(=O)c2cc(=O)c3c(C)cc(C)cc3o2)sc(C(C)=O)c1C	8%
O=C(CC1CCCCC1)N1CCCC1c1nncn1Cc1ccncc1 (stereo unspecified)	-7%
COc1ccccc1N1CCN(C(=O)c2cnn(-c3ccc(F)cc3F)c2C2CCNCC2)CC1	?
Cc1ccc(C(C)OC(=O)C2(C)CCC(C(=O)O)C2(C)C)cc1 (stereo unspecified)	2%
Fc1cccc(NCc2cccn2-c2nnc(N3CCOCC3)s2)c1	-24%
C[S+](=O)([O-])N1CCN(c2nccc(Nc3ccccc3F)n2)CC1	0%
